RE007 growth inh – less growth of the S. pombe RE007 Vpr strain; S. pombe RE007 Vpr strain, BacTiter-Glo ATP luminescence, 24 h; control for the full effect not named in the record; Potency, µM (highest dose often 92.2 µM), inactives show at the top dose activity change, negative = less growth; 360,000 compounds, 0.21% hits; AID 651644; active = well fitted falling curve with a large enough effect; inconclusive = small, poorly fitted or top-dose-only effect; inactive = no such curve, though single readings can be large or run the other way;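 note: % is set by controls: 0 for no effect and ±100 for the full control effect; nearly all actives have a fitted effect of over 50% in size; the assay follows cell death caused by Vpr and the record does not say whether a fall means rescue or toxicity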
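Fission yeast strain RE007, carrying one chromosomally integrated HIV-1 vpr copy, was seeded at OD 0.01 in PMG+AL medium with 23 nL pinned compound. After 24 h at 30 °C and 99% humidity, viability was read by BacTiter-Glo luminescence.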
Cruzain inh Det – inhibitors of Trypanosoma cruzi cruzain with detergent | P25779 | purified cruzain, Z-FR-AMC fluorescence, 0.01% Triton | Potency, µM, for inactives: max response, negative = inhibition, hits mostly inhibitors | 200,000 compounds, 0.43% hits | AID 1478;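 note: plate controls were neutral wells for no effect and buffer without enzyme for full effect; nearly all actives have a fitted effect of over 40% in size; top concentration of the series not given in the record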
Target sequence (P25779 123-467 limits assumed): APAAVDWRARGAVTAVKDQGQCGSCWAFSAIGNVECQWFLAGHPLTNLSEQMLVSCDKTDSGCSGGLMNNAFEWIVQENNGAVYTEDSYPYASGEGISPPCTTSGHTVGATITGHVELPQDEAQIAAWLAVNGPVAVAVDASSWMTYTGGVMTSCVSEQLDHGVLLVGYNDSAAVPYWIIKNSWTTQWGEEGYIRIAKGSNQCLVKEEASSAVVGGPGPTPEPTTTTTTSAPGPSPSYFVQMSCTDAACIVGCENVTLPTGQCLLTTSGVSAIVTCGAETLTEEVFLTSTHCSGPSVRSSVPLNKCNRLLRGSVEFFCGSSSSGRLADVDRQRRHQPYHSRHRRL
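Read-out: AMC fluorescence (360 nm excitation, 450 nm emission), four reads over 2 min, first-to-third difference used. Conditions: cruzain 1.5 nM, Z-FR-AMC 2 uM, pH 5.5 acetate, 5 mM DTT, 0.01% Triton X-100.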
MARV entry inh – inhibitors of Marburg virus binding or cell entry; Marburg virus pseudotyped entry inhibition, cell reporter; control for the full effect not named in the record; about a third of the inactives were read at about 46 µM; Potency, µM (titrated, usually from 37.8 µM), inactives show at the top dose activity change, negative = inhibition, most hits filed as inhibitors; 300,000 compounds, 1.8% hits; active = well fitted inhibition curve with a large enough effect; inconclusive = small, poorly fitted or top-dose-only effect, or effect the other way; inactive = flat fitted curve, though single readings scatter; tested in HEK293 cells; about a fifth of its hits are not listed in these tables; note: % is set by controls: 0 for no effect and ±100 for the full control effect; luciferase read-out
LASV entry inh – blocks Lassa virus binding to or entry into cells | Lassa virus pseudotype entry inhibition, cell reporter; control for the full effect not named in the record | Potency, µM (doses to about 37.9 µM), for inactives: at the top dose activity change, negative = inhibition, actives largely listed as inhibitors | 300,000 compounds, 1.2% hits; active means well fitted inhibition curve with a large enough effect; inconclusive means small, poorly fitted or top-dose-only effect, or effect the other way; inactive means flat fitted curve, though single readings scatter; tested in HEK293 cells; note: % is set by controls: 0 for no effect and ±100 for the full control effect; nearly all actives have a fitted effect of over 50% in size; luciferase read-out
StopGo reporter – FMDV 2A StopGo reporter, luciferase signal; human cells with a luciferase reporter of 2A StopGo recoding; control for the full effect not named in the record; 410,000 compounds, 1.2% hits; Potency, µM (titrated, usually from 57.9 µM), for inactives: at the highest dose signal change, negative = less light; active = well fitted falling curve with a large enough effect; inconclusive = small, poorly fitted or top-dose-only effect; inactive = no such curve, though single readings can be large or run the other way; tested in HEK293T cells; note: % is set by controls: 0 for no effect and ±100 for the full control effect; nearly all actives have a fitted effect of over 45% in size; luciferase light after 4 h
SARS PLP yeast – SARS-CoV PLP inhibition in yeast | 330,000 compounds, 0.19% hits | AID 485353 | S. cerevisiae expressing SARS-CoV PLpro, growth rescue; control for the full effect not named in the record | Potency, µM (series often up to 32.9 µM), inactives show at the highest dose activity, positive = growth rescue; active means well fitted rising curve with a large enough effect; inconclusive means small, poorly fitted or top-dose-only effect; inactive means no such curve, though single readings can be large or run the other way; note: 0% is about no effect; nearly all actives have a fitted effect of over 55% in size; growth read by luminescence after 48 h
Cruzain noTriton – cruzain (T. cruzi) inhibition without detergent. P25779. purified cruzain, Z-FR-AMC fluorescence, no detergent. Potency, µM, inactives show max response, negative = inhibition, most hits filed as inhibitors. 200,000 compounds, 2.3% hits. AID 1476;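 note: plate controls were enzyme without inhibitor for no effect and buffer without enzyme for full effect; nearly all actives have a fitted effect of over 40% in size; top concentration of the series not given in the record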
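Purified cruzain at 1.5 nM, pre-incubated 15 min with compound at room temperature in 100 mM sodium acetate pH 5.5, 5 mM DTT, 0.00005% Triton X-100. Reaction started with 2 uM Z-FR-AMC; AMC fluorescence increase over 60 s gives rate.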
NS1 function inh – influenza NS1 inhibition; Potency, µM (series often up to 46.1 µM), for inactives: top-dose activity, positive = more growth; AID 2326; S. cerevisiae slowed by influenza A NS1, growth recovery by OD600; 270,000 compounds, 0.4% hits; active means well fitted rising curve with a large enough effect; inconclusive means small, poorly fitted or top-dose-only effect; inactive means no such curve, though single readings can be large or run the other way; note: nearly all actives have a fitted effect of over 50% in size
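A cell-based growth assay was used: compounds that relieve NS1-induced slow growth of budding yeast raise OD600. Assay medium was yeast nitrogen base with ammonium sulphate and -URA supplement, pH 6.0, with 2% galactose.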
Active calls of the source: *; ? = inconclusive; nt = not tested or not shown; & = joins results of further samples; [ ] = dose if it differs, or a comment. Unless noted, calls come from the whole dose curve; as a rule, active = well fitted curve in the direction sought with a large enough effect; inconclusive = small, poorly fitted or top-dose-only effect, or another doubt; inactive = no such curve, though single readings can be large; an effect the other way counts as inactive or inconclusive. Potency is the fitted concentration of half-maximal effect.

SMILES	RE007 growth inh	Cruzain inh Det	MARV entry inh	LASV entry inh	StopGo reporter	SARS PLP yeast	Cruzain noTriton	NS1 function inh
O=C(NC(=S)N1CCN(c2ccccn2)CC1)c1ccccc1	1%	-3.1%	0%	1%	-22%	-5%	-6%	8%
COc1ccc(NC(=O)CC2Oc3ccccc3NC2=O)c(OC)c1 (configuration not stated)	7%	nt	?	17%[46.1 µM]	-6%	1%	nt	4%
Cc1ccc(S(=O)(=O)NCCc2ccc(S(N)(=O)=O)cc2)cc1	-1%[3.69 µM]	-1.3%	15%	22%	-8%	5%	-2%	2%
CCN1CCN(S(=O)(=O)Cc2ccccc2)CC1	-10%	4.2%	3%	?	nt	-8%	7%	4%
Cc1ccc(NC(=O)C(=O)NCC2CCN(C(=O)c3cccc([N+](=O)[O-])c3)CC2)cc1	3%	nt	8%	-8%	?	-1%	nt	0%
CCC(C)NC(=O)CNC(=O)c1nn(-c2ccc(OC)cc2OC)c(=O)c2ccccc12 (configuration not stated)	3%	nt	nt	nt	3%	0%	nt	?
CCOC(=O)C1CCN(C(=O)CCNS(=O)(=O)c2ccc3c(c2)CCN3C(=O)CC)CC1	-6%	nt	nt	nt	-10%	-4%	nt	-6%
COCCN1Cc2cccc(C(=O)NC(C)c3cccs3)c2C1=O (configuration not stated)	3%	4.7%	?	13%	44%[activator]	-9%	-2%	-1%
Cn1ccnc1SCC(=O)Nc1ccccc1	25%	-1.2%	?	-8%	32%[activator]	-16%	-5%	-1%
CC(OC(=O)c1cc(S(=O)(=O)N2CCOCC2)ccc1F)C(=O)NCC1CCCCC1 (configuration not stated)	0%	nt	8%	15%	?	1%	nt	nt
O=C(O)CSCC(=O)Nc1ccc(C(F)(F)F)cc1	-10%	nt	5%[46.1 µM]	12%	-9%	0%	nt	2%
Cc1cc(NC(=O)CN2C(=O)CCSc3ccccc32)no1	-24%	nt	0%	-2%	4%	3%	nt	nt
Cc1cc2c(cc1S(=O)(=O)N1CCCCC1)OCC(=O)N2	15%	-17%	nt	17%[46.1 µM]	-11%&-10%	-3%	-8%	-3%
CN(C)C(=O)N1CCCC(C(=O)NCc2ccc(F)cc2Cl)C1 (configuration not stated)	2%	-0.7%	9%	14%	nt	2%	-4%	?
O=C(Nc1cccc(C(F)(F)F)c1)n1cc(-c2ccccn2)c(N2CCOCC2)n1	2%	nt	7%[46.1 µM]	-14%	-20%	-17%	nt	nt
CCOc1ccccc1N(C)S(=O)(=O)c1ccc2c(c1)N(C(C)=O)CCO2	7%	nt	6%[46.1 µM]	?	-7%	3%	nt	-4%
Cc1cc(C)c(NC(=O)Cn2c(=O)n(Cc3ccc4c(c3)OCO4)c(=O)c3ccccc32)c(C)c1	nt	-1.4%	-5%[46.1 µM]	-17%[46.1 µM]	-13%	nt	-14%	nt
O=C(Cn1cnc2ccccc2c1=O)NC1CCCc2ccccc21 (configuration not stated)	-1%	-0.9%	-24%	7%	0%	-4%	5%	-5%
CC1=CN2C(=NC(=O)CC2(C)C(=O)N(CC(=O)NC2CCCC2)Cc2ccccc2)C=C1 (configuration not stated)	4%	nt	19%[46.1 µM]	13%	11%	-2%	nt	-5%
Cc1cccc(NC(=O)CN(C)S(=O)(=O)c2ccc3c(c2)CCC(=O)N3)c1C	nt	1.8%	-13%[46.1 µM]	-3%[46.1 µM]	-13%	nt	-1%	nt
CCNc1nc(NC(C)C)nc(Nn2cnnc2)n1	8%	0.1%	0%	19%	10%	5%	-7%	5%
O=C(CCc1ccccc1)Nc1ccccc1C(=O)N1CCOCC1	-5%	nt	nt	nt	-10%	0%	nt	4%
CC(C)CC(=O)Nc1ccc(Nc2ccccc2)cc1	1%	-6.1%	?	3.5µM*	28%	-22%	?	1%
NC(=S)NC1CCS(=O)(=O)C1 (configuration not stated)	-27%	nt	15%[46.1 µM]	4%	2%	2%	nt	nt
O=C(O)CCC(=O)N(Cc1ccccc1)Cc1ccccc1	56%	nt	nt	nt	-4%	-4%	nt	?
CC(C)c1ccc(-c2noc(SCC(=O)N3CCCCC3C)n2)cc1 (configuration not stated)	nt	-5.5%	nt	-28%[46.1 µM]	-10%	nt	12%	nt
N#Cc1nc(-c2ccccc2F)oc1NCc1cccc2c1OCO2	63%	-8.6%	?	10%	nt	-18%	-9%	-44%
O=C(CSc1n[nH]c(=O)[nH]c1=O)N1CCCCCC1	0%	nt	nt	nt	-9%	-1%	nt	2%
NC(=S)N/N=C/c1cccc(Br)c1	-16%	nt	6%	7%	-15%	?	nt	-5%
CC(C)N1CC2=C(OC(N)=C(C#N)C2c2cccnc2)/C(=C/c2cccnc2)C1 (configuration not stated)	-6%	-4.4%	2%	10%	-6%	1%	?	-2%
CC(C)c1cc(-c2cc(-c3ccc(Cl)cc3)on2)nc(NC2CCCC2)n1	-1%	nt	nt	nt	-8%	-2%	nt	6%
Cc1ccc(C(=O)Nc2nc3nc(-c4ccccc4)cc(=O)n3[nH]2)cc1	8%	-2.6%&-2.3%	0%[46.1 µM]	7%[46.1 µM]	-13%&-15%	1%	-8%&-1%	3%
CC(C)Cc1ccc(/C=C/C(=O)N2CCOCC2)cc1	1%	nt	?	?	48%[activator]	-6%	nt	nt
Nc1cc(N)nc(SCc2cc([N+](=O)[O-])cc3c2OCOC3)n1	8%	nt	nt	nt	-4%	0%	nt	10%
Nc1ncnc2c(C3OC(CO)C(O)C3O)scc12 (configuration not stated)	-12%	nt	nt	?	-3%	nt	nt	nt
O=S(=O)(c1ccccc1)N1CCC(N2CCCCCC2)CC1	9%	-1.4%	?	2%	-5%	10%	-19%	-4%
CCn1c(CN2CCC(C)CC2)nc2cc(NC(=O)COc3ccc([N+](=O)[O-])cc3)ccc21	nt	-1.5%	-27%[46.1 µM]	-17%[46.1 µM]	0%	nt	-4%	nt
O=C(CSc1nc2cc(Cl)ccc2s1)NCC1CCCO1 (configuration not stated)	1%	nt	?	17%	-26%	nt	nt	nt
COc1ccc(S(=O)(=O)NCCc2cn3nc(C)c(C)nc3n2)cc1	-10%	nt	nt	nt	-17%	6%	nt	0%
CC1(C)CC(=O)c2c(O)cc(OCC(=O)Nc3ccc(CCO)cc3)cc2O1	-8%	nt	nt	nt	0%	-7%	nt	-14%
CCn1c(=O)c(=O)n(CC)c2cc(S(=O)(=O)Nc3ccc(C)cc3)ccc21	14%	-4.8%	13%&13%[46.1 µM]	-21%[46.1 µM]	15%&33%	-6%	5%	1%
Cc1ccc(-c2nc3nc(C)cc(C)n3c2Nc2ccc3c(c2)OCCO3)cc1	nt	-7.3%	?	-6%[46.1 µM]	34%[activator]	nt	-9%	nt
Cn1c(=O)c2c(nc(Br)n2CC(=O)c2cccs2)n(C)c1=O	42%	-6.1%	16%	3%	?	8%	-13%	-5%
COc1ccc(Cn2c(CNC(=O)c3ccc(N(C)C)cc3)nc3cccnc32)cc1	nt	-4.5%	nt	-11%[46.1 µM]	6%	nt	-3%	nt
CCOc1cc(C(=S)N2CCCCC2)ccc1OS(=O)(=O)c1ccc(Br)cc1	-13%	3.2%	-13%	-4%	-21%	-6%	?	11%
O=C(c1cccc(Cl)c1)C1CCCN(Cc2cccc3cnccc23)C1 (configuration not stated)	-11%	nt	?	-7%	?	-1%	nt	4%
CCCCOc1cccc(C(=O)Nc2cccc(-c3nc4ncccc4o3)c2C)c1	nt	-6.2%	nt	-17%[46.1 µM]	?	nt	8%	nt
COc1ccc(C(=O)N2CC(=O)Nc3ccc(Br)cc3C2c2ccc(F)cc2)cc1OC (configuration not stated)	nt	-2.9%	8%[46.1 µM]	?	-19%	nt	12%	nt
COc1cccc(NC(=O)CN(C)C(=O)c2ccccc2OCC(=O)Nc2cccc(C(F)(F)F)c2)c1	-16%	nt	-29%	-5%	?	1%	nt	nt
Cc1cc(C)n(CC(=O)N/N=C/c2ccccn2)n1	-1%	2.8%	-3%	4%	-11%	2%	-5%	-3%
CCN(CC)c1ccc(C2NC(=O)NC(C)=C2C(=O)Nc2ccccc2)cc1 (configuration not stated)	-27%	1.1%	-6%	-27%	8%	2%	3%	-8%
Cc1ccc(CNC(=O)C2CCN(S(=O)(=O)c3ccc4c(c3)CC(C)N4C(=O)C3CC3)CC2)cc1 (configuration not stated)	10%	nt	nt	nt	-25%	8%	nt	11%
COc1ccc(N2CCN(C(=O)C3Cc4ccccc4N3C(C)=O)CC2)cc1 (configuration not stated)	nt	-1.7%	nt	12%[46.1 µM]	0%	nt	-6%	nt
COC(=O)CCC(NS(=O)(=O)OCC(Cl)(Cl)Cl)c1ccccc1 (configuration not stated)	7%	nt	nt	nt	-7%	-5%	nt	-8%
O=C(O)C1C2C=CC3(CN(C/C=C/c4ccccc4)C(=O)C13)O2 (configuration not stated)	-10%	7.8%	30%	14%	6%	1%	-3%	-3%
COc1ccccc1OCCNC(=O)C1CC(=O)N(c2cccc(SC)c2)C1 (configuration not stated)	-3%	nt	1%[46.1 µM]	0%	-14%	2%	nt	nt
O=C1CN(C(=O)CNCc2ccccc2)c2ccccc2N1	1%	nt	-14%[46.1 µM]	5%[46.1 µM]	-7%	1%	nt	4%
CCOc1ccc(NC(=O)C2CCN(S(=O)(=O)c3ccc4c(c3)N(C(C)=O)CCO4)CC2)cc1	-2%	nt	nt	nt	?	?	nt	-8%
COC(=O)c1cc(C(=O)c2cccc(Cl)c2Cl)cn1C	-18%	-7.3%	11%	-8%	-6%	1%	1%	-86%
COC(=O)CN(c1cc(Cl)ccc1OC)S(=O)(=O)c1ccc(OC)c(OC)c1	-15%	-0.8%	1%	3%	-26%	-1%	?	-29%
O=C(CC(Nc1ccc(Cl)cc1Cl)C(=O)O)c1ccccc1 (configuration not stated)	-8%	nt	nt	nt	?	-1%	nt	-2%

Assay outcomes (PubChem BioAssay)
